Marburg entry inh: qHTS for inhibitors of binding or entry into cells for Marburg Virus; Potency, µM (top dose mostly 37.8 µM), without a hit: at the highest dose activity change, negative = inhibition, usual class: inhibitors; hit rate 1.8% among 300,000; Marburg virus pseudotyped entry inhibition, cell reporter; control for the full effect not named in the record; about a third of the inactives were read at about 46 µM; active = well fitted inhibition curve with a large enough effect; inconclusive = small, poorly fitted or top-dose-only effect, or effect the other way; inactive = flat fitted curve, though single readings scatter; tested in HEK293 cells; about a fifth of its hits are not listed in these tables; also: % is scaled to controls: 0 for no effect and ±100 for the full control effect; luciferase read-out
Cruzain noTriton: qHTS Assay for Promiscuous and Specific Inhibitors of Cruzain (without detergent); hit rate 2.3% among 200,000; Cruzipain (Trypanosoma cruzi), P25779; Potency, µM, inactives show max response, negative = inhibition, hits mostly inhibitors; purified cruzain, Z-FR-AMC fluorescence, no detergent;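 also: plate controls were enzyme without inhibitor for no effect and buffer without enzyme for full effect; nearly all actives have a fitted effect of over 40% in size; top concentration of the series not given in the record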
Target sequence (P25779 123-467 limits assumed): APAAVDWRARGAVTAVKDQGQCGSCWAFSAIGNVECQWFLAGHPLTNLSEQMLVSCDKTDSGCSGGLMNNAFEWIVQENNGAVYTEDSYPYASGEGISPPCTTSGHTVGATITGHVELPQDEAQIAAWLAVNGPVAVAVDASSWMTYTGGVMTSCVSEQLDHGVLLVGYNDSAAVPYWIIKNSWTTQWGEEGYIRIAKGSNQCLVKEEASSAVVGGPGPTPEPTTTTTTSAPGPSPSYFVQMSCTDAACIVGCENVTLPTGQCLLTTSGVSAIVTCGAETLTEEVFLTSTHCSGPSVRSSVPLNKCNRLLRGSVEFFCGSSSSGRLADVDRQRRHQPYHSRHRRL
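Purified cruzain at 1.5 nM, pre-incubated 15 min with compound at room temperature in 100 mM sodium acetate pH 5.5, 5 mM DTT, 0.00005% Triton X-100. Reaction started with 2 uM Z-FR-AMC; AMC fluorescence increase over 60 s gives rate.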
NS1 function inh: qHTS Assay for Inhibitors of Influenza NS1 Protein Function; hit rate 0.4% among 270,000; S. cerevisiae slowed by influenza A NS1, growth recovery by OD600; Potency, µM (top dose mostly 46.1 µM), inactives show at the top dose activity, positive = more growth; active means well fitted rising curve with a large enough effect; inconclusive means small, poorly fitted or top-dose-only effect; inactive means no such curve, though single readings can be large or run the other way; also: nearly all actives have a fitted effect of over 50% in size
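Recovery from NS1-induced slow growth read by OD600 in budding yeast switched to galactose assay medium (pH 6.0, -URA) at 1:100 dilution. Compound 23 nl per well; the matching strain lacking NS1 serves as control.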
SARS PLpro yeast: qHTS of Yeast-based Assay for SARS-CoV PLP. S. cerevisiae expressing SARS-CoV PLpro, growth rescue; control for the full effect not named in the record. Potency, µM (top dose mostly 32.9 µM), for the others: at the top dose activity, positive = growth rescue. AID 485353, 2010. hit rate 0.19% among 330,000; active means well fitted rising curve with a large enough effect; inconclusive means small, poorly fitted or top-dose-only effect; inactive means no such curve, though single readings can be large or run the other way; also: 0% is about no effect; nearly all actives have a fitted effect of over 55% in size; growth read by luminescence after 48 h
2A StopGo: High Throughput Screening for Foot and Mouth Disease Virus Antivirals; Potency, µM (top dose mostly 57.9 µM), without a hit: at the highest dose signal change, negative = less light; human cells with a luciferase reporter of 2A StopGo recoding; control for the full effect not named in the record; hit rate 1.2% among 410,000; active = well fitted falling curve with a large enough effect; inconclusive = small, poorly fitted or top-dose-only effect; inactive = no such curve, though single readings can be large or run the other way; tested in HEK293T cells; also: % is scaled to controls: 0 for no effect and ±100 for the full control effect; nearly all actives have a fitted effect of over 45% in size; luciferase light after 4 h
RE007 growth inh: qHTS Assay for Inhibitors of the HIV-1 protein Vpr; S. pombe RE007 Vpr strain, BacTiter-Glo ATP luminescence, 24 h; control for the full effect not named in the record; Potency, µM (doses to about 92.2 µM), without a hit: at the highest dose activity change, negative = less growth; hit rate 0.21% among 360,000; active = well fitted falling curve with a large enough effect; inconclusive = small, poorly fitted or top-dose-only effect; inactive = no such curve, though single readings can be large or run the other way;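 also: % is scaled to controls: 0 for no effect and ±100 for the full control effect; nearly all actives have a fitted effect of over 50% in size; the assay follows cell death caused by Vpr and the record does not say whether a fall means rescue or toxicity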
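Fission yeast RE007 carrying one integrated HIV-1 vpr copy, seeded at OD 0.01 in PMG+AL medium with 23 nL pinned compound. Grown 24 h at 30 degrees; viability read by BacTiter-Glo luminescence after 5 min.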
Lassa entry inh: qHTS for Inhibitors of binding or entry into cells for Lassa Virus. Potency, µM (highest dose often 37.9 µM), inactives show at the highest dose activity change, negative = inhibition, most hits filed as inhibitors. AID 540256, 2011. Lassa virus pseudotype entry inhibition, cell reporter; control for the full effect not named in the record. hit rate 1.2% among 300,000; active means well fitted inhibition curve with a large enough effect; inconclusive means small, poorly fitted or top-dose-only effect, or effect the other way; inactive means flat fitted curve, though single readings scatter; tested in HEK293 cells; also: % is scaled to controls: 0 for no effect and ±100 for the full control effect; nearly all actives have a fitted effect of over 50% in size; luciferase read-out
Cruzain inh Det: qHTS Assay for Promiscuous and Specific Inhibitors of Cruzain (with detergent); purified cruzain, Z-FR-AMC fluorescence, 0.01% Triton; Potency, µM, inactives show max response, negative = inhibition, usual class: inhibitors; hit rate 0.43% among 200,000; AID 1478, 2009;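 also: plate controls were neutral wells for no effect and buffer without enzyme for full effect; nearly all actives have a fitted effect of over 40% in size; top concentration of the series not given in the record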
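Steps: dispense cruzain (1.5 nM final) in acetate buffer pH 5.5 with DTT and 0.01% Triton X-100; pin-transfer compounds; incubate 15 min RT; add Z-FR-AMC (2 uM final); read fluorescence every 30 s, using the 60 s intensity change.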
Starred values were filed as active, the others as inactive; u = inconclusive; x = no result given; & = joins results of further samples; [ ] = remark or other dose. Unless noted, calls follow the shape of the dose curve; as a rule, active = well fitted curve in the direction sought with a large enough effect; inconclusive = small, poorly fitted or top-dose-only effect, or another doubt; inactive = no such curve, though single readings can be large; an effect the other way counts as inactive or inconclusive. Potency is read from the fitted curve at half-maximal effect.

SMILES	Marburg entry inh	Cruzain noTriton	NS1 function inh	SARS PLpro yeast	2A StopGo	RE007 growth inh	Lassa entry inh	Cruzain inh Det
COc1ccc(CNC(=O)Cn2c(=O)ccc3cc(S(=O)(=O)N4CCCC4)ccc32)cc1	x	-15%	x	x	-8%	x	7%[46.1 µM]	-1.4%
Cc1cc(SCC(=O)Nc2ccccc2)n2ncc(-c3ccccc3)c2n1	x	x	-2%	0%	-12%	-13%	x	x
Fc1ccc(COc2ccccc2C(=S)N2CCCC2)cc1	2%	u	-9%	13%	9%	3%	-1%	u
Cn1c(SCC(=O)NC2CCCC2)nnc1-c1ccncc1	3%[46.1 µM]	x	-2%	1%	2%	-8%	-1%[46.1 µM]	x
Cc1ccc(CCN2CC(C(=O)NCCc3ccccc3)CC2=O)cc1 (stereo unspecified)	x	x	-6%	-2%	9%	-4%	x	x
COC(=O)Cc1c(C)c2ccc(OCC(=O)c3ccc(OC)c(OC)c3)cc2oc1=O	-3%[46.1 µM]	x	0%	0%	-23%	-19%	-3%[46.1 µM]	x
COC(=O)c1c(C)nc(C)c(C(=O)OC)c1-c1ccc(OC)cc1	-16%[14.2 µM]	x	0%	1%	-19%	1%	5%	x
CCOC(=O)c1ccc(NC(=O)Nc2cccc(OCc3cc(=O)n4ccc(C)cc4n3)c2)cc1	x	0%	x	x	1%	x	1%[46.1 µM]	2.9%
COc1ccc(OCCN2CCN(C(=O)c3ccc(OC)c(OC)c3)CC2)cc1	u	x	-8%	1%	u	-14%	u	x
CCOC(=O)CSc1nc(C)cc(=O)[nH]1	-5%	-6%	0%	x	21%	12%	14%	6.6%
Cc1ccc(N2CC(C(=O)OCC(=O)c3ccc[nH]3)CC2=O)cc1 (stereo unspecified)	-3%	x	x	1%	-16%	3%	3%[46.1 µM]	x
COc1ccc(N2CCN(CCNC(=O)Nc3cc(Cl)ccc3Cl)CC2)cc1	11%[46.1 µM]	x	-1%	-1%	-13%	10%	15%[46.1 µM]	x
COc1ccc(C(=O)CCC(C)(C)[N+](=O)[O-])cc1	0%	x	x	-2%	42%[activator]	-5%	11%	x
CC(C)Oc1ccc(Nc2ncnc3ccccc23)cc1	u	x	-31%	-1%	36%[activator]	-11%	u	x
COc1ccccc1NC(=O)c1sc2nc(C)cc(C)c2c1N	2%	x	x	x	4%	-15%	2%	x
O=c1c2cc(NC(=S)NCCN3CCCCCC3)ccc2nc2n1CCCCC2	u	x	x	-5%	-22%	19%	x	x
O=C1NC2(CCOc3ccccc32)C(=O)N1CC(=O)N(Cc1ccccc1)C1CCS(=O)(=O)C1 (stereo unspecified)	0%&15%	u	-6%	-1%	11%	22%	9%	6.4%
COC(=O)c1ccccc1NC(=O)CSc1nncn1-c1cccnc1	-19%[46.1 µM]	x	14%	-1%	10%	0%	x	x
O=c1cc(CN2CCN(S(=O)(=O)c3ccc(Cl)cc3)CC2)nc2sc(-c3ccccc3F)nn12	x	-4%	x	x	-17%	x	5%[46.1 µM]	2.2%
O=C(O)CSC1=NC(=Nc2ccc(Cl)cc2)C2(CCCCC2)N1c1cccc(C(=O)O)c1	u	-8%	-2%	6%	-11%	4%	-1%	-5.2%
Cc1ccc(N2CCN(CCc3ccccc3)CC2)cc1	u	7%	-8%	-5%	6%	2%	-26%	3.9%
CC(C)c1nnc(NC(=O)CCC(=O)N2CCN(c3ccccc3F)CC2)s1	-27%[46.1 µM]	x	-11%	-4%	-17%	11%	-27%[46.1 µM]	x
FC(F)(F)c1cc(-c2ccco2)nc(N2CCN(Cc3ccccc3)CC2)n1	u	2%	3%	-13%	-14%	-8%	3%	-11%
COC(=O)C1CCN(C(=O)COC(=O)CNS(=O)(=O)c2ccc(SC)c([N+](=O)[O-])c2)CC1	-3%	x	x	3%	-27%	-4%	-3%	x
Cc1nn(CC(=O)N2CCN(c3ccccc3)CC2)c(=O)c2ccccc12	x	x	-1%	-4%	-8%	9%	x	x
SMILES	Marburg entry inh	Cruzain noTriton	NS1 function inh	SARS PLpro yeast	2A StopGo	RE007 growth inh	Lassa entry inh	Cruzain inh Det
O=C(CN1CCC(C(=O)c2ccc(Cl)cc2)CC1)NC1CCCC1	-7%[46.1 µM]	x	4%	4%	u	-3%	u	x
Cc1ccccc1-n1ncc2c(SCC(=O)N3c4ccccc4CC3C)ncnc21 (stereo unspecified)	u	-2%	-4%	-11%	x	-14%	-30%	-2.6%
Cc1ccc2sc(N3CCN(C(=O)CCS(=O)(=O)c4ccc(F)cc4)CC3)nc2c1C	x	-4%	x	x	u	x	13%[46.1 µM]	-0.8%
Cc1ccc(CN2CCN(Cc3cccn3-c3ccccn3)CC2CCO)cc1 (stereo unspecified)	x	x	-2%	0%	-10%	-8%	x	x
Cc1csc(NC(=O)CSCC(=O)O)c1-c1nc2ccccc2s1	x	x	10%	0%	3%	-2%	x	x
CSc1ccc(/C=C(/NC(=O)c2ccccc2)C(=O)NCCN2CCOCC2)cc1	19%	x	-10%	0%	-6%	-8%	-4%	x
CC(C)N1CCc2[nH]c(=S)[nH]c(=O)c2C1	13%	-4%	u	6%	-14%	-6%	11%	-1.5%
Clc1ccc2nc(-c3ccc(Cl)nc3)[nH]c2c1	7.9µM*	x	-51%	-4%	26%	-1%	u	x
Fc1ccc(NC(=S)NC2CC3CCC(C2)N3Cc2ccco2)cc1 (stereo unspecified)	-8%[46.1 µM]	x	3%	0%	-2%	0%	3%	x
O=S(=O)(/N=C(\c1ccccc1)N1CCOCC1)c1cccs1	12%	4%	-1%	27%	-6%	9%	-5%	4.5%
O=C(N/N=C/c1ccc(O)c([N+](=O)[O-])c1)C1CC1(c1ccccc1)c1ccccc1 (stereo unspecified)	-8%[46.1 µM]	x	5%	-2%	-27%	4%	-19%	x
COc1cc(C)c2c(c1C=O)Oc1c(c(C)c(O)c3c1C(O)OC3=O)OC2=O (stereo unspecified)	x	u	-1%	0%	-3%&2%&-18%	11%	x	-2.2%&-4.5%
COc1ccc2c(c1)c1c(c(=O)n(-c3ccc(OC)c(OC)c3)c(=O)n1Cc1ccc(F)cc1)n2C	x	-5%	x	x	3%	x	15%[46.1 µM]	-2.1%
Cc1c(C(=O)Nc2cccc(C(F)(F)F)c2)sc2nc3n(c(=O)c12)CCC3	x	-5%	x	x	-2%	x	1%[46.1 µM]	-3.1%
Cc1noc(C)c1COc1ccc2ccc(=O)oc2c1	-19%[46.1 µM]	x	0%	1%	-1%	5%	-25%	x
CC(=NCCN1CCN(C(=S)Nc2ccccc2)CC1)C1=C(O)CC(C)(C)CC1=O	4%	2%	-4%	0%	-20%	-4%	-26%	-1.3%
NS(=O)(=O)c1ccc(CCNC(=O)c2cncc(Br)c2)cc1	u	12%	-2%	2%	-13%	-10%	6%	3.1%
C#CC1(NC(=O)NS(=O)(=O)c2ccc(C)cc2)CCCCC1	x	x	-2%	-1%	u	19%	x	x
N#Cc1nc(-c2ccccc2Cl)oc1NCC1CCCO1 (stereo unspecified)	x	16%	-12%	-2%	-7%	11%	x	11%
O=c1c2cnn(-c3ccccc3)c2nc(-c2cccs2)n1-c1cccc(Cl)c1	u	u	11%	1%	u	6%	-29%	-8.5%
CC(=O)[C@H]1[C@H](C#N)C[C@H]2[C@@H]3CC=C4C[C@@H](O)CC[C@]4(C)[C@H]3CC[C@@]21C	19%	-3%	6%	2%	-21%	5%	-6%	-1.5%
COc1cccc(-c2nc(CS(=O)(=O)CC(=O)Nc3c(C)cccc3C)c(C)o2)c1	2%	-11%	2%	3%	3%	-11%	x	-9.1%
CCN(CC)C(=O)C1CCCN(c2ccc([N+](=O)[O-])cc2/C=N/NC(=O)c2cccc(Br)c2)C1 (stereo unspecified)	-14%	u	u	18%	-2%	-13%	-2%	-2.2%
Cc1ccc(S(=O)(=O)N2CCCC(C(=O)NCc3ccccn3)C2)cc1 (stereo unspecified)	2%	-2%	-18%	5%	4%	3%	-28%	7.9%
C=CCn1c(Cc2nc3ccccc3[nH]2)n[nH]c1=S	0%	-13%	7%	-2%	27%	2%	17%	-0.4%
SMILES	Marburg entry inh	Cruzain noTriton	NS1 function inh	SARS PLpro yeast	2A StopGo	RE007 growth inh	Lassa entry inh	Cruzain inh Det
Cc1cccc(N(C(=O)c2snc(C(N)=O)c2N)C(C(=O)NCC2CCCO2)c2ccc3ncccc3c2)c1 (stereo unspecified)	-1%[46.1 µM]	x	-14%	6%	0%	1%	x	x
CC1(C)CC(=O)C2=C(C1)N(c1ccc(F)cc1)C(=O)NC2(C(F)(F)F)C(F)(F)F	-4%	7%	21%	-8%	-7%	-1%	-15%	7.0%
Cc1nc2nc[nH]n2c(=O)c1NC(=O)CCc1ccccc1	-1%[46.1 µM]	1%	8%	1%	1%	4%	9%	6.5%
COc1ccc(C/C(N)=N/OC(C)=O)cc1OC	u	10%	8%	16%	3%	3%	6%	-0.8%
O=C1CC(C(=O)Nc2ccc(C(=O)N3CCOCC3)cc2)C2(CCCCC2)O1 (stereo unspecified)	7%[46.1 µM]	0%	0%	1%	-6%	-2%	3%	9.1%
Cc1ccc(-n2nnnc2-c2cnc(N3CCCC3)nc2C(F)(F)F)cc1	-12%	17%	-85%	-30%	u	-3%	u	-9.0%
CC(C)(C)c1csc(NC(=O)c2cccnc2)n1	x	x	-17%	-7%	-4%	-12%	x	x
Cc1ccc(C(=O)CN2CCN(c3ccccn3)CC2)c(C)c1	x	x	-10%	0%	-2%	-8%	x	x
CC(=O)Nc1ccc(S(=O)(=O)N2CCN(Cc3ccncc3)CC2)cc1	u	1%	-3%	-1%	-5%	0%	u	1.5%
Cc1cccc(NC(=O)N2CCCC2C(=O)Nc2ccccc2)c1 (stereo unspecified)	8%	x	-1%	0%	1%	19%	16%	x
Cc1ccc(NC(=O)c2c(C)oc3c2C2=NCCN2C=N3)cc1F	x	-4%	x	x	-1%	x	2%[46.1 µM]	-0.9%
C=CCc1cccc(C=Nc2c[nH]c(=O)[nH]c2=O)c1O	2%[46.1 µM]	x	20%	-4%	-13%	16%	-2%[46.1 µM]	x

Outcome played no part in choosing rows; overall some 4.7% were active at least once.
